TRPML1 agonist – human mucolipin-1 channel agonism; hit rate 0.12% among 410,000; TRPML1-expressing cells, Ca2+ dye fluorescence, FDSS; host cell line not named in the record; reference of the full effect not given here; activation, % (concentration not given with the values); in the data active = activation above about 50%; inconclusive = about 30% to 50%; inactive = below about 30%; note: 0% is about no effect; the text of the record puts the active cut at 80%
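Tet-induced TRPML1-DL cells, 1,500 per well, cultured overnight, were loaded with a no-wash Ca2+ dye for 45–90 min. Calcium fluorescence was recorded on the FDSS for 110 s after compound addition, before the EC80 agonist (4 uM 54-4) was added.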
TRPML1 blocker – human mucolipin-1 channel inhibition | TRPML1-inducible cells, Ca2+ dye fluorescence, FDSS; hits give low values; inhibition of EC80 agonist-evoked calcium signal | activity change, negative = inhibition, % (no concentration beside the values) | hit rate 0.02% among 390,000 | Q9GZU1 | AID 624415; in the data active means activity change below about -50%; inconclusive means about -30% to -50%; inactive means above about -30%;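 note: stimulus is agonist 54-4 at its EC80 concentration; % is set by controls: 0 for no effect and ±100 for the full control effect; compound concentration not given in the record; the text of the record puts the active cut at -80%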
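TRPML1-DL cells, Tet-induced overnight (~16 h, 37 °C) at 1,500 cells/well, were loaded with Ca8 no-wash dye plus quencher for 45-90 min at room temperature. Compounds were pinned during FDSS kinetic reading; agonist 54-4 at EC80 (4 uM final) then added.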
Six1-Eya2 inh – inhibitors of human Six1/Eya2 interaction; AlphaScreen GST-Six1/His-Eya2 binding, biochemical; hits give low values; control for the full effect not named in the record; activity change, % (concentration not given with the values); hit rate 0.56% among 360,000; AID 651725; in the data active = activity change below about -65%; inconclusive = about -30% to -65%; inactive = above about -30%; note: % is set by controls: 0 for no effect and ±100 for the full control effect
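GST-Six1 + His-Eya2 (5X stock: 250/500 nM); Tris pH 8.0, 300 mM NaCl, 0.05% BSA, 0.02% Tween 20; GSH donor/Ni acceptor beads; 1 h 37 °C dark; AlphaScreen readout.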
D2 potentiator – positive allosteric modulators of human D2 dopamine receptor; P14416; DiscoveRx D2 beta-arrestin cells, luminescence, 90 min; 100% = 57 uM dopamine signal; potentiation, % (no concentration beside the values); hit rate 0.23% among 360,000; active = potentiation of 50% or more; inconclusive = 30% to 50%; inactive = 30% or less;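 note: compound concentration not given in the record; tested on top of an EC20 dose of dopamine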
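PathHunter D2 cells, attached overnight at 37 deg C, received compound in DMSO plus dopamine at EC20 (50 nM final) for 90 min at 37 deg C. Beta-arrestin recruitment was read as luminescence after 1 h with detection reagent at ambient temperature.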
TRPV1 potentiator – human TRPV1 potentiation. Q8NER1. TRPV1-expressing cells, Fluo-8 calcium influx, capsaicin EC20 potentiation; host cell line not named in the record; control for the full effect not named in the record. potentiation, % at 8.33 µM. hit rate 0.02% among 320,000. AID 540277; active means potentiation above 80%; inconclusive means 30% to 80%; inactive means below 30%; note: 0% is about no effect
Target sequence (Q8NER1 whole entry, looked up): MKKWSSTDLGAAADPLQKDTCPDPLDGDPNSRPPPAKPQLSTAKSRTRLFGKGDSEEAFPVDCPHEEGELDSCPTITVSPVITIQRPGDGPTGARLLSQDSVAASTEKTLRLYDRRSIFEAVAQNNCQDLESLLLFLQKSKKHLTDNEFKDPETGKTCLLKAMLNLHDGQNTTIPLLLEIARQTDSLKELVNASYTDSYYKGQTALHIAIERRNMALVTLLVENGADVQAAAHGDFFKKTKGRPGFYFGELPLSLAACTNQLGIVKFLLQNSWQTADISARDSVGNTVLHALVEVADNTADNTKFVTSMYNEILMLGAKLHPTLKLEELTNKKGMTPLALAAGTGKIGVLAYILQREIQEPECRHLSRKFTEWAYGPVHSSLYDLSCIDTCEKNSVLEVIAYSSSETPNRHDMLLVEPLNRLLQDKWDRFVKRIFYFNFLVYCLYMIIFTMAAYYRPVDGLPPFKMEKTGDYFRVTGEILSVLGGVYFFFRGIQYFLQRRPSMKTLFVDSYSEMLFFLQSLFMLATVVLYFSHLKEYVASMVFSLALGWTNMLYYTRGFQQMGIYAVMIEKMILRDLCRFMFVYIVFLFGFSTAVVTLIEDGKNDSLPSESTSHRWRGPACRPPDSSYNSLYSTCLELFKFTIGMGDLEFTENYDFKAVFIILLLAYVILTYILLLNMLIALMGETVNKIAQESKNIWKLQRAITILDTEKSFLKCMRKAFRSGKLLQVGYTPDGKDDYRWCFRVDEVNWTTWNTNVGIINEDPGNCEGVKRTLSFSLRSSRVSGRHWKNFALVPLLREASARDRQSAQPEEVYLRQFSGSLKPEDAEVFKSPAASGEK
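Cells expressing TRPV1 were dye-loaded with Fluo-8 and read kinetically: 10 s baseline, 3 min after compound (agonist portion), then 2 min after EC20 capsaicin (allosteric enhancer portion). Calcium-bound dye fluorescence at 480/520 nm.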
CtBP-E1A inh – CtBP/E1A binding inhibition; AlphaScreen GST-E1A/His-CtBP binding, 1536-well; hits give low values; control for the full effect not named in the record; activity change, % (no concentration beside the values); hit rate 0.49% among 340,000; AID 651724; in the data active means activity change below about -65%; inconclusive means about -30% to -65%; inactive means above about -30%; note: % is set by controls: 0 for no effect and ±100 for the full control effect; compound concentration not given in the record
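Homogeneous bead-based format: GST-tagged E1A captured on glutathione donor beads, His-tagged CtBP on nickel acceptor beads; compounds precede bead addition by 2 h at 37 °C.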
Starred values were filed as active, the others as inactive; ? = inconclusive; . = no result given; & = joins results of further samples.

item	compound	TRPV1 potentiator	Six1-Eya2 inh	TRPML1 agonist
1	CCCC(=O)NCCc1nc2cc([N+](=O)[O-])ccc2n1C	-3	0	-0.7
2	COc1c(O)ccc(/C=N\NC(=O)c2ccc3c(c2)OCO3)c1[N+](=O)[O-]	?	-2	.
3	Cc1nn(-c2ccccc2)c2[nH]c(=O)cc(C(F)(F)F)c12	-49	-3	-0.3
4	Cc1ccc(N(CC(=O)NC2CCCC2)C(=O)CCC(=O)Nc2ccccn2)cc1C	-15	-6	-0.4
5	COc1ccc(CCNC(=O)C2CCCN(S(=O)(=O)c3cccc4nonc34)C2)cc1OC (stereo unspecified)	25	8	0.8
6	Oc1ccccc1C1C=C(c2ccc3c(c2)OCO3)NC(c2cccc(Br)c2)N1 (stereo unspecified)	-22	.	0.8
7	C=C(C)COc1ccc2c(C)c(CCC(=O)N3C[C@H]4C[C@@H](C3)c3cccc(=O)n3C4)c(=O)oc2c1	-8	-8	.
8	Cc1nn(C)c(C(=O)Nc2ccn(Cc3ccccc3F)n2)c1[N+](=O)[O-]	-1	-2	-0.7
9	Cn1c(O)c(N=Nc2nc(-c3ccccc3)cs2)c2ccccc21	5	-5	0.0
10	CC(=O)Nc1ccc(S(=O)(=O)NC(C)CCc2ccccc2)cc1 (stereo unspecified)	3	-2	-0.8
11	COc1ccc(S(=O)(=O)Cc2ccc(C(=O)N3CCN(c4ccccn4)CC3)o2)cc1	4	-3	0.3
12	O=C(CSc1nc2ccccc2c(=O)n1-c1ccc(F)cc1)Nc1ccc(Cl)c(S(=O)(=O)N2CCOCC2)c1	-21	0	2.1
13	CCc1sc(C(=O)N2CCN(C(=O)c3ccccc3)CC2)cc1C	.	-3	0.3
14	COc1ccc(-c2nc3ccccc3c(=O)n2NC(=O)c2cccnc2Cl)cc1OC	4	-14	1.3
15	COC(=O)c1c(C(=O)OC)c2c(-c3ccccc3)cc3cccc1n32	.	68	5.6

item	CtBP-E1A inh	TRPML1 blocker	D2 potentiator
1	.	26	1
2	.	.	6
3	-3	21	-6
4	8	-15	-8
5	1	18	-6
6	.	23	.
7	-2	.	1
8	4	-7	-1
9	-8	-9	-24
10	.	-15	-15
11	1	18	-5
12	5	-1	-13
13	-4	21	-3
14	1	0	-4
15	17	23	-7

Laid out differently: entries from further up
1) CCCC(=O)NCCc1nc2cc([N+](=O)[O-])ccc2n1C
2) COc1c(O)ccc(/C=N\NC(=O)c2ccc3c(c2)OCO3)c1[N+](=O)[O-]
3) Cc1nn(-c2ccccc2)c2[nH]c(=O)cc(C(F)(F)F)c12
4) Cc1ccc(N(CC(=O)NC2CCCC2)C(=O)CCC(=O)Nc2ccccn2)cc1C
5) COc1ccc(CCNC(=O)C2CCCN(S(=O)(=O)c3cccc4nonc34)C2)cc1OC (stereo unspecified)
6) Oc1ccccc1C1C=C(c2ccc3c(c2)OCO3)NC(c2cccc(Br)c2)N1 (stereo unspecified)
7) C=C(C)COc1ccc2c(C)c(CCC(=O)N3C[C@H]4C[C@@H](C3)c3cccc(=O)n3C4)c(=O)oc2c1
8) Cc1nn(C)c(C(=O)Nc2ccn(Cc3ccccc3F)n2)c1[N+](=O)[O-]
9) Cn1c(O)c(N=Nc2nc(-c3ccccc3)cs2)c2ccccc21
10) CC(=O)Nc1ccc(S(=O)(=O)NC(C)CCc2ccccc2)cc1 (stereo unspecified)
11) COc1ccc(S(=O)(=O)Cc2ccc(C(=O)N3CCN(c4ccccn4)CC3)o2)cc1
12) O=C(CSc1nc2ccccc2c(=O)n1-c1ccc(F)cc1)Nc1ccc(Cl)c(S(=O)(=O)N2CCOCC2)c1

| entry no. | 1 | 2 | 3 | 4 | 5 | 6 | 7 | 8 | 9 | 10 | 11 | 12 |
| --- | --- | --- | --- | --- | --- | --- | --- | --- | --- | --- | --- | --- |
| TRPV1 potentiator | -3 | ? | -49 | -15 | 25 | -22 | -8 | -1 | 5 | 3 | 4 | -21 |
| Six1-Eya2 inh | 0 | -2 | -3 | -6 | 8 | . | -8 | -2 | -5 | -2 | -3 | 0 |
| TRPML1 agonist | -0.7 | . | -0.3 | -0.4 | 0.8 | 0.8 | . | -0.7 | 0.0 | -0.8 | 0.3 | 2.1 |
| CtBP-E1A inh | . | . | -3 | 8 | 1 | . | -2 | 4 | -8 | . | 1 | 5 |
| TRPML1 blocker | 26 | . | 21 | -15 | 18 | 23 | . | -7 | -9 | -15 | 18 | -1 |
| D2 potentiator | 1 | 6 | -6 | -8 | -6 | . | 1 | -1 | -24 | -15 | -5 | -13 |

13) CCc1sc(C(=O)N2CCN(C(=O)c3ccccc3)CC2)cc1C
14) COc1ccc(-c2nc3ccccc3c(=O)n2NC(=O)c2cccnc2Cl)cc1OC
15) COC(=O)c1c(C(=O)OC)c2c(-c3ccccc3)cc3cccc1n32

| entry no. | 13 | 14 | 15 |
| --- | --- | --- | --- |
| TRPV1 potentiator | . | 4 | . |
| Six1-Eya2 inh | -3 | -14 | 68 |
| TRPML1 agonist | 0.3 | 1.3 | 5.6 |
| CtBP-E1A inh | -4 | 1 | 17 |
| TRPML1 blocker | 21 | 0 | 23 |
| D2 potentiator | -3 | -4 | -7 |

The results go on.
item	compound	TRPV1 potentiator	Six1-Eya2 inh	TRPML1 agonist
16	CC(=O)N1CCc2c(sc(NC(=O)CN3C(=O)c4ccccc4C3=O)c2C(N)=O)C1	0	2	0.3
17	CCOc1ccc(S(=O)(=O)N2CCOCC2)cc1NC(=O)CSCC(=O)Nc1ccc(C)cc1	7	-9	2.1
18	O=C(c1cc(-c2ccncc2)nc2ccccc12)N1CCN(c2ncccn2)CC1	.	-6	-0.2
19	COc1ccc(NC(=O)NC(C)c2ccccc2)cc1 (stereo unspecified)	-5	5	0.0
20	Fc1ccc(CNC(=S)Nc2cccc(Cl)c2)cc1	0	17	-0.4
21	COc1ccc(S(=O)(=O)NN(C)c2nc(C(F)(F)F)nc3ccccc23)cc1	0	-2	-0.1
22	COc1cc(/C=C(\C#N)C(=O)N2CCOCC2)cc(Br)c1O	-1	-1	0.3
23	O=C(N/N=C/c1cc2ccccc2nc1Cl)c1ccncc1	-18	-29	0.0
24	C/C(=N\Nc1ccc(F)cc1)c1ccc(N2CCOCC2)c(F)c1	3	0	0.0
25	CC(C)(CNC(=O)c1ccc(Br)o1)CNC(=O)c1ccc(Br)o1	9	2	1.6
26	Clc1ccc2c(NNc3ccccc3Cl)ccnc2c1	20	-22	2.4
27	CCOc1cc(/C=N\NC(=O)c2ccc(C)nc2)cc([N+](=O)[O-])c1O	5	-14	-0.2
28	Cc1ccc(CNc2ccc(S(=O)(=O)N3CCOCC3)cc2[N+](=O)[O-])cc1	3	-28	1.0
29	Cc1ccc2nc(SCC(=O)Nc3c(C)n(C)n(-c4ccccc4)c3=O)[nH]c2c1	-4	1	-0.9
30	COC(=O)Cn1cnc2c(C#N)c3n(c2c1=O)CCCC3	1	-1	-0.5

item	CtBP-E1A inh	TRPML1 blocker	D2 potentiator
16	-10	-5	-1
17	7	-6	-8
18	-4	-4	-16
19	4	14	9
20	1	-4	-6
21	2	-10	1
22	.	5	-9
23	21	-7	-7
24	-5	-5	-13
25	1	20	-2
26	-18	12	-15
27	-7	8	-15
28	-16	72	-20
29	-4	1	-27
30	6	-27	-9

The listing continues:
item	compound	TRPV1 potentiator	Six1-Eya2 inh	TRPML1 agonist
31	CCOc1cc(CNCCCN2CCOCC2)ccc1OCC(=O)Nc1cccc2ccccc12	1	0	1.9
32	COc1ccc(C(=O)CSc2nc3ccccc3n2CC(=O)NC(C)(C)C)cc1	2	1	0.2
33	CCCCN(C(=O)c1ccc(S(=O)(=O)N(C)C)cc1)c1ccccc1	-8	1	81*
34	O=C(NCc1cccnc1)c1ccc2c(c1)N(Cc1ccccc1)CCS2	.	-7	2.5
35	O=C(NN=C1CCN(Cc2ccccc2)CC1)c1ccccc1O	-18	-5	-0.4
36	O=C(NC(c1ccccc1)c1ccccc1)c1ccc(Br)o1	-8	11	12
37	COC(=O)CCSc1nccn1Cc1ccccc1	29	-3	-0.5
38	Cc1c(Cl)cccc1NC(=O)CCCN1C(=O)CCC1=O	1	3	-0.5
39	O=S(=O)(NCc1ccccc1F)c1cccc(S(=O)(=O)N2CCOCC2)c1	-1	1	2.0
40	O=C(CSc1nc(-c2ccco2)cc(C(F)(F)F)n1)N1CCN(c2cccc(Cl)c2)CC1	1	-6	0.6
41	O=C(O)COc1ccccc1C1C2C(=O)N(c3ccccc3)C(=O)C2ON1c1ccccc1 (stereo unspecified)	1	-5	-0.4
42	O=C(CSc1nc(C(F)(F)F)cc(=O)[nH]1)NCc1ccc2c(c1)OCO2	9	12	-0.9
43	Cc1cccc(-c2nc3ccccc3c3nncn23)c1	-6	-6	5.0
44	Nc1nc2c(ncn2[C@H]2C[C@H](O)[C@@H](CO)O2)c(=O)[nH]1	-5	7	-0.4&0.1
45	CN1CCC(Oc2ccccc2Sc2ccccc2)CC1	0	0	1.8

item	CtBP-E1A inh	TRPML1 blocker	D2 potentiator
31	-3	-8	-5
32	0	-1	12
33	4	-12	-8
34	-10	25	2
35	16	-12	-16
36	-2	-8	3
37	-1	7	-7
38	-2	-6	-10
39	8	27	-1
40	-1	20	-1
41	-2	15	-6
42	2	20	-9
43	-10	3	0
44	-4	-11	-3
45	-18	28	-45

(cont.)
item	compound	TRPV1 potentiator	Six1-Eya2 inh	TRPML1 agonist
46	CCOC(=O)C1=C(COC(=O)/C=C/c2ccc(OC)cc2OC)NC(=O)NC1C (stereo unspecified)	5	-5	0.9
47	CCCCOCCCNC(=O)C[C@@H]1C[C@@]2(C(=O)OCC)CCC=C2N(Cc2ccc3c(c2)OCO3)C1=O	.	-2	-0.6
48	COc1ccc(C(=O)N2CCCC2(C#N)c2ccccc2)cc1[N+](=O)[O-] (stereo unspecified)	2	0	-0.8
49	CC1(C)Cc2nc3scc(NC(=O)c4ccccc4)c3cc2CO1	-12	-5	-0.8
50	COc1ccc(C(=O)OC2C(OC)OCC(O)C2O)cc1 (stereo unspecified)	.	9	1.2
51	O=C1C2CCCN2C(=O)N1CCCCN1CCN(c2ccccc2)CC1 (stereo unspecified)	2	5	0.3
52	CCN(C1CCCCC1)S(=O)(=O)CCNC(=O)c1ccccc1	-17	7	0.0
53	Cc1ccc(NS(=O)(=O)c2ccc3[nH]c4c(c3c2)CCCCCC4)cc1Cl	-4	.	3.9
54	COc1ccc(CC(=O)Oc2ccc(F)c(F)c2)cc1S(=O)(=O)N1CCOCC1	-20	-27	0.1
55	COc1ccc(CC(=O)NNC(=O)c2cccs2)cc1	6	2	0.4
56	O=C(CCCN1C(=O)c2cccc3cccc(c23)C1=O)NCc1cccs1	-13	7	-0.2
57	Cn1nnnc1SCc1nc2scc(-c3ccc(Cl)cc3)c2c(=O)[nH]1	0	-12	.

item	CtBP-E1A inh	TRPML1 blocker	D2 potentiator
46	25	0	-12
47	-4	.	.
48	.	-1	-6
49	.	10	-14
50	4	53	-4
51	-2	40	4
52	-3	-1	-9
53	.	24	.
54	-3	12	-14
55	1	3	5
56	1	17	1
57	-13	.	-28
